# Assay outcomes deposited in PubChem by several laboratories.
# Ecoli rRNA inh: selective bacterial rRNA inhibition in E. coli; E. coli WT GFP vs humanized-ribosome RFP mutants, fluorescence, 24 h; active compounds read low; DMSO median 0, no signal -100; GFP signal change (wild-type ribosome), % (concentration not given with the values); 350,000 compounds, 1.6% hits; AID 720706;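 active = significant combined selectivity score with lowered wild-type GFP, culture density cut under 30%, mutant RFP and density less affected; inactive = any of these conditions unmet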; note: one replicate is shown; some compounds called inactive have numbers as strong as hits
# Calb FLC: affects C. albicans growth with fluconazole; C. albicans CaCi-2 (fluconazole-resistant clinical isolate) + fluconazole, Alamar Blue growth, 48 h; 300,000 compounds, 0.57% hits; growth inhibition, % (test concentration not listed);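 active = most replicates above 75%; inconclusive = exactly half above 75%; inactive = most below 75%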;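 note: all wells also contain fluconazole at 8 µg/ml as a sub-toxic cotreatment; 0% = median of DMSO wells and 100% = median of geldanamycin control wells; wells of about 8 µL received 7.5 nL stock; the first replicate is given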
# MLL AF4-AF9 inh: inhibitors of human MLL-AF4/AF9 interaction. P42568. AlphaScreen, biotin-AF4 peptide binding to FLAG-AF9. inhibition, % at 10 µM. 350,000 compounds, 0.47% hits. AID 651704;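 active = every replicate reaching a set inhibition limit, whatever the replicate mean, cut at about 25% in these data; inconclusive = mean inhibition reaches that limit but some replicates miss it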;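 note: 0% = plate neutral control median and 100% = total signal loss; the record names both 10 and 1 µM as test concentration; the first replicate is given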
# Target sequence (P42568 whole entry, looked up): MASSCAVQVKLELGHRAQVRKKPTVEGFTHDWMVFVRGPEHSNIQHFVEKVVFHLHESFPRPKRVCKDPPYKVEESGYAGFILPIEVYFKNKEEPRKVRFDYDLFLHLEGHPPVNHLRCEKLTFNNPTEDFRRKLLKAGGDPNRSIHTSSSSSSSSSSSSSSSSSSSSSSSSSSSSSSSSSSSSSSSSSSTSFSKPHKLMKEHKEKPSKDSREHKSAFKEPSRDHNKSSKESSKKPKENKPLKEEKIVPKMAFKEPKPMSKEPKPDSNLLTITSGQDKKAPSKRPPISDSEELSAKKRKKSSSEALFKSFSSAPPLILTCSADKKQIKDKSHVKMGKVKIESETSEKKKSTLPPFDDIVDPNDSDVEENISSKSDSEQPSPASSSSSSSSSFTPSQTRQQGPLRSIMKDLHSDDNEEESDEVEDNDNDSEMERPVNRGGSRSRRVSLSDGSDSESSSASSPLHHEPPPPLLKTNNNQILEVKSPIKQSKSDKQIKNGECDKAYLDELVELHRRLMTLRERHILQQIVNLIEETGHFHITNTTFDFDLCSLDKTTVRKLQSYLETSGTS
# Vif TR-FRET: HIV-1 Vif–A3G interaction blockers – biochemical, TR-FRET, GST-Vif 1-94, biotin-A3G peptide, dose response retest, primary screen (AID 1117319). inhibition, %, or IC50 in µM where a hit was titrated. TR-FRET GST-Vif / biotin-A3G peptide binding; higher % means a stronger effect; test concentration not given here; strong numbers were not always called active. 260,000 compounds, 0.57% hits;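 active = above the screen mean plus three standard deviations and confirmed in dose response; inconclusive = results disagree or hit not tested in dose response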;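 note: Vif residues 1-94 fused to GST binding biotinylated APOBEC3G peptide 110-148; 0% = full assay without inhibitor and 100% = GST in place of GST-Vif; retest series ran down from 100 µM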
# RanGTP-Impb inh: inhibitors of RanGTP-importin-beta interaction, primary screen, biochemical, FRET, CFP-Ran, YFP-importin-beta, homogeneous. cell-free CFP-Ran/YFP-importin-beta FRET ratio. inhibition, % (concentration not given with the values). 300,000 compounds, 1.1% hits;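 active = most replicates above 15%; inconclusive = exactly half above 15%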;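 note: 0% = DMSO wells and 100% = Ran loaded with GDP instead of GTP; wells of about 40 µL received 100 nL stock; the first replicate is given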
# T cruzi inh: blocks replication of Trypanosoma cruzi. T. cruzi beta-gal in NIH3T3, luminescence, 90 h. inhibition, % (test concentration not listed). 300,000 compounds, 1.4% hits. AID 1885;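 active = mean inhibition across valid replicates above about 55%, limit read from the data; inconclusive = mean below that limit but half or more replicates reach it; inactive = mean below it, under half of replicates reach it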;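 note: signal also drops with host cell toxicity which is not excluded here; 0% = plate median of DMSO wells and 100% = zero luminescence signal; higher percent means less beta-gal luminescence so fewer parasites; stock transfer was 50 nL into about 50 µL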
# Bfl-1 A1 inh: inhibitors of the anti-apoptotic protein A1, read as caspase activation; MEF A1-2A-BIM cells, Caspase-Glo 3/7 luminescence, 3 h; percent of clofoctol response, vehicle zero; caspase activation, % (no concentration beside the values); 330,000 compounds, 0.066% hits; AID 2462;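 active = over half of replicate activation scores above 10%, or exactly half above 10 with the replicate mean above 10; inconclusive = replicate mean below 10 yet half the replicates above 10; inactive = over half of replicates below 10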;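 note: wells of about 30 µL received 50 nL stock; many hits fall short of the cut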
# Beta cell apopt: blocks beta cell apoptosis; INS-1E cytokine-induced death, ATP luminescence, 48 h; percent of positive-control rescue, neutral wells zero; protection from apoptosis, % (no concentration beside the values); 300,000 compounds, 0.8% hits; AID 435005;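 active = all replicates at 75% or more, or half of them and the mean; inconclusive = half reach 75% but not the mean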;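 note: 0% = cytokine-treated negative control wells and 100% = positive control rescue; higher means more ATP so stronger rescue from cytokine killing; wells of about 40 µL received 100 nL stock; the first replicate is given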
# Ecoli rRNA inh OD600: second read-out of Ecoli rRNA inh, no call of its own (marks repeat the call); OD600 change, %; measured here: OD600 growth;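 optical density of the mix in the first replicate; 0 = DMSO median and -100 = no signal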
# Ecoli rRNA inh RFP: further read-out of Ecoli rRNA inh, marked with its call; RFP signal change, %; measured here: RFP humanized mutant strains;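 first replicate; 0 = DMSO median and -100 = no signal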
# Numbers without * were called inactive; ? = inconclusive; . = no result given. Some of the compounds tested, so the mix of outcomes need not match the whole.
SMILES,Ecoli rRNA inh,Ecoli rRNA inh OD600,Ecoli rRNA inh RFP,Calb FLC,MLL AF4-AF9 inh,Vif TR-FRET,RanGTP-Impb inh,T cruzi inh,Bfl-1 A1 inh,Beta cell apopt
CC(C)C[C@H](NC(=O)Nc1cccc(Br)c1)C(=O)O,8,7,-0.3,-2,-2.3,22%,0.6,-3,0.3,-14
C=CC[C@@H](CC(=O)N[C@@H](CO)Cc1ccccc1)C(=O)NC[C@H](OC(=O)[C@@H](CC=C)Cc1ccc(F)cc1)c1ccccc1,6,10,4.4,.,1.0,.,.,.,-0.8,4
Cc1nn(C(C)(C)C)c(OC(=O)c2cccs2)c1Sc1ccccc1,.,.,.,12,.,26%,3.1,-19,1.2,3
N#Cc1ccccc1S(=O)(=O)N1CCN(CC(=O)NC(=O)NC2CCCCC2)CC1,5,-5,5.1,-8,-27,-4%,-0.4,-2,-0.1,2
CC1=NN(C(=O)Cc2ccc([N+](=O)[O-])cc2)C(O)(c2cccnc2)C1 (stereo unspecified),.,.,.,-15,.,?,1.3,.,2.3,-2
COCC(C)NC(=O)CSc1nc2cc(S(=O)(=O)N3CCCCC3)ccc2o1 (stereo unspecified),-3,0,-0.8,.,0.5,-6%,.,.,0.0,1
CS(=O)(=O)c1nc(-c2ccccc2)cc(C(F)(F)F)n1,.,.,.,62,.,-4%,2.9,65*,-0.1,108*
COc1ccc(C2CC(=O)N3C(=C2C#N)SCC3(O)c2ccccc2)cc1 (stereo unspecified),.,.,.,26,.,1%,6.9,48,-0.9,-11
CCN(CC)S(=O)(=O)c1ccc(N2CCOCC2)c(NC(=O)c2cc([N+](=O)[O-])ccc2Cl)c1,6,9,1.8,2,-2.6,19%,2.8,10,-0.3,6
O=C(NN1C(=O)NC2(CCCCC2)C1=O)c1ccc(-c2ccccc2Cl)o1,-9,-33,-4.7,.,0.1,.,.,.,-0.5,4
O=C(/C=C/c1cccc(O)c1)c1cccnc1,9,10,2.4,-14,2.2,.,0.1,-12,-0.6,-6
Cc1ccc(S(=O)(=O)Nc2ccc3c(c2)nc(C)n3C)cc1,3,-1,-4.7,-4,-5.6,7%,3.4,5,0.4,-4
O=C(Nc1cccc(Cl)c1)Nc1csc([N+](=O)[O-])c1,-50,-59,-9.3,-1,4.5,0%,1.5,64*,-0.8,126*
O=C(NCCc1ccccc1)c1cccc(Br)c1,-9,-4,1.7,3,-1.6,-2%,?,-17,2.0,-8
CCN1CCCC1CN(Cc1cc2cc(OC)ccc2[nH]c1=O)C(=O)NCc1ccccc1 (stereo unspecified),.,.,.,0,.,3%,-2.4,4,0.1,-8
CCCCCn1c(=O)[nH]c2cc(C(=O)NCCN3C(C)CCCC3C)ccc2c1=O (stereo unspecified),5,7,-2.4,-4,-2.0,.,-6.9,-14,0.4,3
CC(C)NC(=O)N(Cc1ccccc1)Cc1cccs1,10,12,0.7,-21,-3.0,-1%,-1.8,-6,2.4,-7
O=C(c1cccc(F)c1)N1CCCC(C(=O)N2CCCCC2)C1 (stereo unspecified),8,11,0.1,19,-6.0,0%,-0.9,-4,-1.8,-4
Cc1ccccc1-n1c(=O)c2c(n3cnnc13)-c1ccccc1CC21CCCCC1,.,.,.,-29,.,-2%,4.3,18,0.2,-2
C1CCC(NC2=NCCC2)CC1,.,.,.,-7,.,1%,-3.1,-18,1.3,-4

# A few values from above.
# For RanGTP-Impb inh, CC(C)NC(=O)N(Cc1ccccc1)Cc1cccs1 has the entry -1.8
# For Beta cell apopt, CC(C)C[C@H](NC(=O)Nc1cccc(Br)c1)C(=O)O has the entry -14

# Going on with the list:
SMILES,Ecoli rRNA inh,Ecoli rRNA inh OD600,Ecoli rRNA inh RFP,Calb FLC,MLL AF4-AF9 inh,Vif TR-FRET,RanGTP-Impb inh,T cruzi inh,Bfl-1 A1 inh,Beta cell apopt
Cc1ccc(-n2ncc3c(NNC(=O)c4cccs4)ncnc32)cc1,23,19,0.5,-3,-2.9,9%,-2.2,-28,0.7,-10
CC1CCCN(C(=S)NCCc2ccccc2)C1 (stereo unspecified),.,.,.,1,.,3%,9.0,-12,0.7,.
COC(=O)c1oc2c(c1C)C(=O)CCC2,18,0,1.0,1,0.2,5%,1.0,-15,-0.8,-8
CN1C(N)=NC(=O)/C1=C/c1ccc(F)cc1,5,4,-0.5,5,-0.7,30%,2.8,-5,-0.1,-10
CCN(C(=O)COC(=O)c1cc([N+](=O)[O-])ccc1N1CCOCC1)C1CCS(=O)(=O)C1 (stereo unspecified),10,11,1.9,8,0.8,-1%,0.8,-6,0.7,4
O=C(Nc1ccccn1)c1ccc2c(c1)OCO2,-5,-3,-2.8,-7,-13,19%,-1.1,-13,-10,15
Cc1cc(NCc2ccccn2)nc2ccccc12,11,25,-3.4,7,2.1,1%,-3.4,4,-0.8,2
C=CCOC(=O)C(C#N)c1nc2ccccc2nc1N1CCN(c2ccccc2OCC)CC1 (stereo unspecified),-13,-19,-9.2,2,8.3,.,2.4,29,0.2,5
COc1ccc(C2C3=C(Nc4ncnn42)c2ccccc2CCC3)cc1 (stereo unspecified),.,.,.,8,.,2%,-4.9,12,0.3,4
CC(C)(CNC(=O)c1ccc(S(=O)(=O)N2CCCC2)cc1)N1CCOCC1,20,24,2.9,-5,-0.9,-8%,0.7,-6,1.4,-5
COc1ccc(CNC(=O)N2CCN(S(=O)(=O)c3ccccc3)CC2)cc1,-5,2,4.2,11,2.0,.,9.8,-5,-0.3,5
CCCCCCn1nc(C(=O)N(CCCC)c2c(N)n(CCC)c(=O)[nH]c2=O)c2ccccc2c1=O,.,.,.,.,-1.1,1%,.,.,-0.9,-6
COc1ccc(CNC2CCCC2)c(OC)c1OC,.,.,.,-3,.,0%,-1.1,2,-0.4,-5
CN1CCN(C(c2cccc(C(F)(F)F)c2)c2nnnn2Cc2ccccc2)CC1 (stereo unspecified),.,.,.,-22,.,0%,3.3,32,-2.2,0
CCN1CCN(CC(=O)Nc2cc3c(cc2C(C)=O)OCO3)CC1,6,11,0.2,-18,0.7,.,5.7,2,0.5,-4
COc1ccc(NC(=O)Cn2nnc(C(=O)NCCc3ccccc3)c2N)cc1,-6,0,-0.7,-14,-0.7,-4%,-2.5,9,1.7,-2
CC1CCC2(CC1)NC(=O)N(CC(=O)NCc1cccs1)C2=O (stereo unspecified),5,-1,-2.5,-6,-1.7,-4%,-3.9,-17,0.6,.
Fc1ccc2cc(-c3ccccc3)ncc2c1,5,13,-0.1,.,-1.0,.,.,.,-5.0,0
CCOC(=O)C1=C(C)NC(C)=C(C(=O)OCC)C1c1cc2ccc(C)cc2[nH]c1=O,.,.,.,8,.,0%,2.1,18,0.6,-2
COc1ccccc1OCC(O)CN1CCOCC1 (stereo unspecified),14,15,3.6,7,3.4,.,0.5,2,1.1,-15

# Quoted from the listing for reference:
SMILES,Ecoli rRNA inh,Ecoli rRNA inh OD600,Ecoli rRNA inh RFP,Calb FLC,MLL AF4-AF9 inh,Vif TR-FRET,RanGTP-Impb inh,T cruzi inh,Bfl-1 A1 inh,Beta cell apopt
CC1CCCN(C(=S)NCCc2ccccc2)C1 (stereo unspecified),.,.,.,1,.,3%,9.0,-12,0.7,.
COC(=O)c1oc2c(c1C)C(=O)CCC2,18,0,1.0,1,0.2,5%,1.0,-15,-0.8,-8
CN1C(N)=NC(=O)/C1=C/c1ccc(F)cc1,5,4,-0.5,5,-0.7,30%,2.8,-5,-0.1,-10
CCN(C(=O)COC(=O)c1cc([N+](=O)[O-])ccc1N1CCOCC1)C1CCS(=O)(=O)C1 (stereo unspecified),10,11,1.9,8,0.8,-1%,0.8,-6,0.7,4
O=C(Nc1ccccn1)c1ccc2c(c1)OCO2,-5,-3,-2.8,-7,-13,19%,-1.1,-13,-10,15
Cc1cc(NCc2ccccn2)nc2ccccc12,11,25,-3.4,7,2.1,1%,-3.4,4,-0.8,2
C=CCOC(=O)C(C#N)c1nc2ccccc2nc1N1CCN(c2ccccc2OCC)CC1 (stereo unspecified),-13,-19,-9.2,2,8.3,.,2.4,29,0.2,5
COc1ccc(C2C3=C(Nc4ncnn42)c2ccccc2CCC3)cc1 (stereo unspecified),.,.,.,8,.,2%,-4.9,12,0.3,4
CC(C)(CNC(=O)c1ccc(S(=O)(=O)N2CCCC2)cc1)N1CCOCC1,20,24,2.9,-5,-0.9,-8%,0.7,-6,1.4,-5
COc1ccc(CNC(=O)N2CCN(S(=O)(=O)c3ccccc3)CC2)cc1,-5,2,4.2,11,2.0,.,9.8,-5,-0.3,5
CCCCCCn1nc(C(=O)N(CCCC)c2c(N)n(CCC)c(=O)[nH]c2=O)c2ccccc2c1=O,.,.,.,.,-1.1,1%,.,.,-0.9,-6
COc1ccc(CNC2CCCC2)c(OC)c1OC,.,.,.,-3,.,0%,-1.1,2,-0.4,-5
CN1CCN(C(c2cccc(C(F)(F)F)c2)c2nnnn2Cc2ccccc2)CC1 (stereo unspecified),.,.,.,-22,.,0%,3.3,32,-2.2,0

# The list goes on:
SMILES,Ecoli rRNA inh,Ecoli rRNA inh OD600,Ecoli rRNA inh RFP,Calb FLC,MLL AF4-AF9 inh,Vif TR-FRET,RanGTP-Impb inh,T cruzi inh,Bfl-1 A1 inh,Beta cell apopt
CCc1ccc(/C=C/C(=O)c2ccc(N3CCOCC3)cc2)cc1,.,.,.,4,.,.,-6.6,1,-0.7,0
COc1cc(-c2nc(-c3ccccc3)c(-c3cccs3)[nH]2)cc(OC)c1O,.,.,.,22,.,23%,-20,25,0.9,.
Cc1cccc(NC(=O)C(NS(=O)(=O)c2ccc3c(c2)CCC(=O)N3)c2ccccc2)n1 (stereo unspecified),.,.,.,20,.,4%,4.6,4,0.8,2
CC(C)CC(=O)NC(=S)NNC(=O)c1ccc(NC(=O)C2CCCCC2)cc1,.,.,.,75*,.,.,-3.3,-4,0.9,30
COc1cccc(NC(=O)CN(C)C(C)C(=O)Nc2ccc(C(C)=O)cc2)c1 (stereo unspecified),-9,-11,-1.1,7,2.0,-2%,?,-14,-0.5,6
